# HIV TAR-Tat: HIV-1 TAR-Tat binding disruption | HIV-1 TAR RNA, Tat peptide displacement FRET; hits give high values | AID 1259389 | z-score (no concentration beside the values) | 100,000 compounds, 0.6% hits;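 also: score is relative to mean and SD of negative controls; some compounds called inactive have numbers as strong as hits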
# CDC25B-CDK2 inh: human CDC25B-CDK2/CyclinA binding inhibition; P30305+P24941; z-score (no concentration beside the values); HTRF CDC25B-CDK2/CyclinA binding, anti-His/anti-Flag; hits give high values; 94,000 compounds, 0.72% hits; AID 1259370;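 also: score is relative to mean and SD of negative controls; strong numbers were not always called active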
# An asterisk follows results filed as active; x = no result given.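 The calls were made as follows: active = z-score from 3 up in half or more of its runs; inactive = the rest.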
SMILES,HIV TAR-Tat,CDC25B-CDK2 inh
COc1ccc(S(=O)(=O)Nc2cc(C)c(C)cc2[N+](=O)[O-])c(OC)c1,x,0.82
Cc1noc(C)c1S(=O)(=O)N1CCC(C(=O)NCc2cscn2)CC1,0.97,x
CSc1cccc(NC(=O)CSc2nc3ccccc3o2)c1,3.1,0.38
CC(=O)Nc1nc2ccc(NS(=O)(=O)c3cccc4nsnc34)cc2s1,0.36,x
O=C(NCc1ccc2c(c1)OCO2)Nc1ccc2snnc2c1,x,-2.3
Nc1nsc2ccc([N+](=O)[O-])cc12,x,-0.62
COC(=O)c1cc2occc2n1Cc1ccc(F)cc1Cl,0.44,-0.95
O=C(NCC1CCCO1)C1CC(c2ccc(Cl)cc2)=NO1 (stereo not drawn),0.2,-1.4
Cc1cc2n(n1)C(c1ccccc1Cl)Nc1c(C)cccc1-2 (stereo not drawn),-0.9,0.26
Cc1cc2nc(CSc3ccccc3N)cc(=O)n2o1,0.12,x
O=C(O)C1=C(C(=O)OCCCc2ccncc2)SCCS1,x,-0.07
Fc1ccc(Oc2ncnc3c2oc2ccccc23)cc1,3.1,x
CCOCCCN1CN(Cc2ccco2)CNC1=S,x,-0.13
Clc1ccc(-c2nnc3ccc(SCc4ccccn4)nn23)cc1,x,-1.6
CC(Sc1nc(-c2ccccc2)c(-c2ccccc2)[nH]1)C(=O)O (stereo not drawn),x,-1.8
Cc1[nH]nc2c1C1(CCN(Cc3ccccc3)CC1)C(C#N)=C(N)O2,-4,0.08
Cc1occc1-c1nnc(SCC(=O)Nc2nc3ccccc3s2)o1,0.61,-1.9
O=C(CN1C(=O)CSc2ccc(S(=O)(=O)N3CCCC3)cc21)NCC1CCCO1 (stereo not drawn),0.42,x
CCc1nn2c(=O)c(NC(=O)c3ccc(F)cc3)cnc2s1,-1.2,-1.5
c1ccc(OCCSc2nc3ccccc3[nH]2)cc1,0.65,-1.6
O=C(NC1CCCc2ccccc21)C1CCN(c2nnc(-n3cccc3)s2)CC1 (stereo not drawn),0.84,-1.7
Cc1cc(=O)[nH]c(SCC(=O)c2c[nH]c3ccccc23)n1,-2.8,-0.93
Cc1cccc(OCCSc2nnc(-c3cccs3)o2)c1,0.98,-0.14
C=CCNC(=O)C1=CC(c2ccc3c(c2)OCO3)=NS(=O)(=O)N1C,2,-2.5
Cc1ccc(Nc2c(C)c(C)nc3ncnn23)c(C)c1,1.5,x

# An excerpt of these results, as tab-separated lines.
SMILES	HIV TAR-Tat	CDC25B-CDK2 inh
CC(Sc1nc(-c2ccccc2)c(-c2ccccc2)[nH]1)C(=O)O (stereo not drawn)	x	-1.8
Cc1[nH]nc2c1C1(CCN(Cc3ccccc3)CC1)C(C#N)=C(N)O2	-4	0.08
Cc1occc1-c1nnc(SCC(=O)Nc2nc3ccccc3s2)o1	0.61	-1.9

# (listing goes on)
SMILES,HIV TAR-Tat,CDC25B-CDK2 inh
Nc1nc(SCC(=O)NCCN2CCOCC2)nc2sc3c(c12)CCCC3,0.57,0.36
COc1ccc(-c2csc3ncnc(NC4CCCC4)c23)cc1,1.2,x
Cc1cc(C)nc(NC2=NCC(=O)N2CCc2c[nH]c3ccccc23)n1,1.1,1.4
CCOC(=O)NC(=O)/C(C#N)=C/Nc1ccc(OC(F)(F)F)cc1,x,1.1
CCCN[C@H]1CS(=O)(=O)C[C@@H]1S(=O)(=O)c1ccc(NC(C)=O)cc1,-0.33,-1.2
Cc1nn2c(=O)c3ccc(C(=O)O)cc3nc2s1,1.4,-1.6
COC(=O)C1=C(C)NC2=C(C(=O)CCC2)C1c1ccccc1C (stereo not drawn),-0.07,-1.6
O=C(NCC1CC1)c1cccnc1Oc1ccccc1,x,-1.5
COc1cc(-c2cc(NC(=O)Cn3ncc4c3-c3ccccc3OC4)on2)cc(OC)c1OC,x,-2.9
COCCCNc1nc(-c2cccnc2)nc2ccccc12,0.74,-2.3
CCOC(=O)Oc1ccc2c(-c3ccccc3)cc(=O)oc2c1,x,-0.95
CCN(CC)CCn1c(-c2ccc(Br)cc2)cn2c3ccccc3nc12,0.67,-2.5
O=c1nc(/C=C/c2ccc(O)c(O)c2)oc2ccccc12,18*,-0.52
COc1cc2nc(NCC3CCCO3)n3nc(-c4cccnc4)nc3c2cc1OC (stereo not drawn),x,0.99
Cc1cc2c(cc1S(=O)(=O)Nc1ccc3c(c1)OCO3)OCC(=O)N2,1,x
C(=N\Nc1cc(-c2ccccc2)nc2ncnn12)/c1ccc2c(c1)OCO2,x,-0.75
CCOC(=O)C1=NN(c2ccccc2OC)C2C(=O)N(c3ccc(Br)cc3)C(=O)C12 (stereo not drawn),-0.34,-1.5
O=S(=O)(c1ccc2nc(Nc3ccc(F)cc3)ccc2c1)N1CCCCC1,1.7,x
Cn1cc(S(=O)(=O)N2CCc3ccccc32)cc1C(=O)NCc1cccs1,0.91,-1.8
CCCc1nc(SCC(=O)Nc2cc(C)on2)c2c(=O)n(C)c(=O)n(C)c2n1,0.92,x
CNC(=S)N(Cc1ccccc1)Cc1cccnc1,x,-0.91
Cc1nnsc1C(=O)Oc1ccc([N+](=O)[O-])cc1,x,-1.1
COCCCN1C(=O)C(=O)/C(=C(\O)c2ccc(C)c(F)c2)C12C(=O)N(C)c1ccccc12 (stereo not drawn),0.86,-0.07
CN1C(=O)CC(NCc2ccc(S(N)(=O)=O)cc2)C1=O (stereo not drawn),1.3,-0.03
O=C1c2cccnc2C(=O)N1Cc1ccc(S(=O)(=O)N2CCN(c3ccccc3F)CC2)s1,-0.57,x

# The list goes on (two carried over from the part before).
SMILES,HIV TAR-Tat,CDC25B-CDK2 inh
CN1C(=O)CC(NCc2ccc(S(N)(=O)=O)cc2)C1=O (stereo not drawn),1.3,-0.03
O=C1c2cccnc2C(=O)N1Cc1ccc(S(=O)(=O)N2CCN(c3ccccc3F)CC2)s1,-0.57,x
NS(=O)(=O)c1ccc(CCNC(=O)CCCn2ncn3c(cc4occc43)c2=O)cc1,1.3,-0.8
Cc1ccc(-c2noc3ncnc(NCc4ccco4)c23)cc1,0.88,x
Cc1cc(NS(=O)(=O)c2ccc3c(c2)C(C)(C)C(=O)N3C)ccc1Br,2.1,x
O=C(CSc1nnc2sc3ccccc3n12)c1ccc2c(c1)OCCO2,x,-0.49
O=C1NC2(CCCC2)N=C1c1ccc(Cl)cc1,x,1.2
CCCCC(=O)Nc1ccccc1SCc1cc(=O)n2c3c(sc2n1)CCCC3,-1.2,x
CC(C)n1nnc2cc(S(=O)(=O)N3CCCCC3C(=O)O)ccc21 (stereo not drawn),-0.22,-1.7
CCOC(=O)c1cccc(CO/N=C(\C)c2ccc(Cl)c(Cl)c2)c1,x,-4
CCS(=O)(=O)c1oc(-c2ccc(F)cc2)nc1S(=O)(=O)c1ccc(Br)cc1,0.78,-6.8
CCc1ccc(C(=O)c2cnc3cc4c(cc3c2N2CCN(CC)CC2)OCO4)cc1,2.3,-1
CCOC(=O)Cn1c(=O)c2c3c(sc2n(CC(=O)N2CCC(C)CC2)c1=O)COC(C)(C)C3,-0.7,-1.1
O=C(Nc1ccc(Br)cc1)c1cc(CN2CCCC2)on1,-0.17,-0.93
COc1ccc(/C(O)=C2\C(=O)C(=O)N(CCCN(C)C)C2c2ccccc2)cc1 (stereo not drawn),-0.27,-0.92
O=C(O)c1ccc(-n2nnnc2SCC(=O)c2ccc(F)cc2)cc1,1.6,x
CN(C)CCCN1C(=O)c2oc3ccc(Cl)cc3c(=O)c2C1c1ccc(F)cc1 (stereo not drawn),0.65,-1.1
C=CCc1cccc(CNc2nc3ccccc3n2CC)c1O,1.6,0.62
Fc1ccccc1N1CCN(c2ncc3c(n2)CCN(Cc2ccccn2)C3)CC1,1.7,x
COc1ccc(Cl)c(OC)c1NC(=O)NC(=O)c1c(Cl)cc([N+](=O)[O-])cc1Cl,x,-0.08
Cc1ccc(-c2ccc(=O)[nH]n2)cc1S(=O)(=O)N1CCc2ccccc21,1.8,-0.27
Cc1nc(N2CCN(c3ccccn3)CC2)nc2c1C(=O)CC(c1ccccc1F)C2 (stereo not drawn),0.3,-2.9
COc1cc(Nc2nc3c(S(=O)(=O)c4ccccc4)nnn3c3ccsc23)cc(OC)c1,-1.1,x
Cc1c(C(=O)O)nnn1-c1ccc(F)cc1,2.6,-1.6
CC(C)c1ccc(Nc2nncc(=O)[nH]2)cc1,-0.4,1.4
COc1cccc2c1OC1(CCN(C(C)=O)CC1)N1N=C(c3ccccc3)CC21 (stereo not drawn),x,-1.3
Cc1ccc(-c2[nH]nc3c2C(c2ccccc2)C2=C(CC(C)(C)CC2=O)N3)cc1 (stereo not drawn),1.1,1.7

# Random excerpt: 7 compounds from above, in no set order.
SMILES,HIV TAR-Tat,CDC25B-CDK2 inh
Cc1cc(NS(=O)(=O)c2ccc3c(c2)C(C)(C)C(=O)N3C)ccc1Br,2.1,x
CCOC(=O)Cn1c(=O)c2c3c(sc2n(CC(=O)N2CCC(C)CC2)c1=O)COC(C)(C)C3,-0.7,-1.1
O=C(Nc1ccc(Br)cc1)c1cc(CN2CCCC2)on1,-0.17,-0.93
CN(C)CCCN1C(=O)c2oc3ccc(Cl)cc3c(=O)c2C1c1ccc(F)cc1 (stereo not drawn),0.65,-1.1
COc1cccc2c1OC1(CCN(C(C)=O)CC1)N1N=C(c3ccccc3)CC21 (stereo not drawn),x,-1.3
Cc1c(C(=O)O)nnn1-c1ccc(F)cc1,2.6,-1.6
COc1cc(Nc2nc3c(S(=O)(=O)c4ccccc4)nnn3c3ccsc23)cc(OC)c1,-1.1,x

# Later entries
SMILES,HIV TAR-Tat,CDC25B-CDK2 inh
COc1ccc(S(=O)(=O)Nc2cc(Cl)c3oc(=O)sc3c2)cc1,3.4,-2.5
CC1=CC(c2ccccc2)n2nc(N3C(=O)c4ccccc4C3=O)nc2N1 (stereo not drawn),x,-2.1
O=C(C1CCCCC1)N1CCN(c2cc(=O)n3nc(-c4ccccc4)sc3n2)CC1,-6.8,x
O=C(c1n[nH]c2c1CCCC2)N1CCOCC1,x,-1.4
CCCSCCCNC(=O)C1=C(C)C(=O)OC12CCCCC2,-0.1,-1.2
Cn1c(=O)c2c(nc(Br)n2Cc2nnc(N)s2)n(C)c1=O,x,-0.41
CCN1CCN(C(=O)Cn2ncc3c4ccccc4n(C)c3c2=O)CC1,0.06,-0.94
c1ccc2c(c1)c(NCc1ccc3c(c1)OCO3)nn1nnnc21,0.54,x
CC1(C)C2CC[C@]3(C)C(C(=O)C=C4[C@@H]5C[C@@](C)(C(=O)O)CC[C@]5(C)CC[C@]43C)[C@@]2(C)CC[C@@H]1O (stereo partly drawn),0.84,x
CCCCCc1ccc(O)cc1OCCCCCCCCCCC(=O)NC1CC1,1.1,x
Cn1ncc(COC(=O)Nc2c(Cl)cccc2Cl)c1C(F)(F)F,x,-1.2
COC(=O)C1=C(C)Nc2nc(SCC(C)C)[nH]c(=O)c2C1c1cccnc1 (stereo not drawn),-0.19,-2.1
CCOC(=O)c1c(Sc2ccccc2)cnn1C(=O)c1ccc(C(F)(F)F)cc1,x,-0.97
COc1ccc(OCC(=O)Nc2nc3ccc(S(=O)(=O)N4CCCC4)cc3s2)cc1,-0.42,x
CC(C)CN(CCS(=O)(=O)N1CCNCC1)S(=O)(=O)c1ccc(Cl)cc1,1.9,x
C=CCn1c(N2CCC(C(=O)O)CC2)nc2ccccc21,1.4,-0.01
COc1cccc2c1OC(c1cccc(Cl)c1)N1N=C(c3cccnc3)CC21 (stereo not drawn),x,-2.5
COC(=O)C1=NNC(C(=O)OC)=C2COC(c3ccccc3)OCC12 (stereo not drawn),x,-1.1
C=CCNC(=O)CN1C(=O)c2cccnc2Sc2ccccc21,2.3,-1
Cc1csc(N2C(=O)C=CC2=O)c1C(=O)c1ccccc1,x,-1.2
O=C(O)c1nccnc1C(=O)Nc1ccc(F)cc1F,0.73,-1.9
COc1cc(/C=c2\sc3nc4c(C)cc(C)cc4n3c2=O)cc(OC)c1OC,x,-0.22
O=[N+]([O-])c1cc(C(F)(F)F)ccc1Oc1ccc(-c2ncon2)cc1,x,-0.14
Nc1cccc(-c2nnc(-c3cccc(N)c3)o2)c1,3.8,-1
O=C(NCC1CCCO1)c1ccc2c(c1)nc1n2CCCCC1 (stereo not drawn),0.77,x

# Further records:
SMILES,HIV TAR-Tat,CDC25B-CDK2 inh
COc1ccc(Nc2nc(N)c([N+](=O)[O-])c(N3CCOCC3)n2)cc1,-0.03,x
CCCNC(=O)Cn1cnc2sc(C(=O)NC3CCCC(C)C3C)c(C)c2c1=O (stereo not drawn),x,1.4
CCCn1c(NCc2cccc(Br)c2)nc2ccccc21,0.97,0.86
Cc1oc2ccc(OCC(=O)OC(C)(C)C)cc2c1C(=O)OC(C)C,0.6,-1.2
CCCn1c(=O)c2c(c3ccccc31)OC(C)C(=O)N2 (stereo not drawn),x,-0.94
O=C(CCC(=O)N1CCSc2ccccc21)N1CCN(c2ccccc2)CC1,1.9,x
Cc1nc(-c2ccc(S(=O)(=O)N3c4ccccc4CC3C)cc2)co1 (stereo not drawn),-1.5,x
Cc1ccc2nc(Nc3ccc(C)c(F)c3)c3nncn3c2c1,-0.15,-1.5
O=C1c2cccnc2C(Nc2ccccc2)N1c1ccccc1 (stereo not drawn),2,x
O=C(O)Cn1cccc1C(=O)c1ccccc1,0.75,x
COCCNc1nc(N2CCOCC2)c2cnn(C)c2n1,0.65,x
O=C1Cc2cc(S(=O)(=O)NCc3ccccc3Cl)ccc2N1,0.1,-0.38
O=C(NCCCSC1CCCCC1)c1csc2c1CCCCC2,-1.1,-2.8
COC(=O)c1cnc(N2CCN(c3ccccn3)CC2)c2ccccc12,0.28,x
CCC(Sc1nc2c(cc1C#N)CCCCC2)C(=O)Nc1cc(C)on1 (stereo not drawn),x,-1.9
CCOC(=O)N1CCN(C(=O)C2CCN(S(=O)(=O)N3CCCC3)CC2)CC1,0.77,x
CCCCNC(=O)c1c(N2CCCC2=O)c2cc(F)ccc2n1C,0.95,x
CC(C)CC1N=C2c3ccccc3N=C(SCc3cc(=O)n4ccccc4n3)N2C1=O (stereo not drawn),x,-2.4

# Screening results from PubChem BioAssay.
